eIF4H FP inh = inhibitors of RNA binding by human eIF4H. Q15056. eIF4H fluorescence polarization binding assay. inhibition, % at 35 µM. 290,000 compounds, 0.94% hits;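 active means 50% or more with normal probe brightness, or confirmed in later tests; inconclusive means above 50% with abnormal brightness, or retests that disagree; inactive means below 50% or failed in later tests; about a fifth of its hits are not listed in these tables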;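 further: calls also rest on retests at 20 µM and on dose response follow-up; 0% = protein and probe with vehicle and 100% = probe without protein; strong numbers were not always called active; many hits fall short of the cut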
Rce1 inh = yeast Ras-converting enzyme inhibition; Q03530; yeast membranes, quenched prenylated peptide cleavage fluorescence; calls only; 290,000 compounds, 0.27% hits;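 active means fall in fluorescence gain of 50% or more versus controls, with final raw signal at or below 3038400; inconclusive means same 50% fall but final raw signal above 3038400; inactive means fall in fluorescence gain under 50%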;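 further: plate controls were neutral control wells for no effect and wells lacking membranes for full effect; tested at 10 µM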
Target sequence (Q03530 whole entry, looked up): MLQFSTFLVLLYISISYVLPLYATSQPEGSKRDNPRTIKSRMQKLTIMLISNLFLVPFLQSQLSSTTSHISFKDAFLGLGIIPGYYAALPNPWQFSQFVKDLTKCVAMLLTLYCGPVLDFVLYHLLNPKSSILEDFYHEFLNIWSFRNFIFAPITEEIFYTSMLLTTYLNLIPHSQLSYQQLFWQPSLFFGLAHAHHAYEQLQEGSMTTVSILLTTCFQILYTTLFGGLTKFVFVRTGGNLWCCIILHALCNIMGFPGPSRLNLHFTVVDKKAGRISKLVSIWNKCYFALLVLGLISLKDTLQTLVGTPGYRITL
PABP polyA inh = PABP-poly(A) binding inhibition. P11940. PABP-poly(A) RNA binding, fluorescence polarization. inhibition, % at 35 µM. 290,000 compounds, 1% hits;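 active means 50% or more with normal probe brightness, or confirmed in later tests; inconclusive means above 50% with abnormal brightness, or retests that disagree; inactive means below 50% or failed in later tests; about a fifth of its hits are not listed in these tables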;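 further: calls also rest on retests at 20 µM and on dose response follow-up; controls were probe without protein and protein plus probe with vehicle; some compounds called inactive have numbers as strong as hits; many hits fall short of the cut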
Target sequence (P11940 whole entry, looked up): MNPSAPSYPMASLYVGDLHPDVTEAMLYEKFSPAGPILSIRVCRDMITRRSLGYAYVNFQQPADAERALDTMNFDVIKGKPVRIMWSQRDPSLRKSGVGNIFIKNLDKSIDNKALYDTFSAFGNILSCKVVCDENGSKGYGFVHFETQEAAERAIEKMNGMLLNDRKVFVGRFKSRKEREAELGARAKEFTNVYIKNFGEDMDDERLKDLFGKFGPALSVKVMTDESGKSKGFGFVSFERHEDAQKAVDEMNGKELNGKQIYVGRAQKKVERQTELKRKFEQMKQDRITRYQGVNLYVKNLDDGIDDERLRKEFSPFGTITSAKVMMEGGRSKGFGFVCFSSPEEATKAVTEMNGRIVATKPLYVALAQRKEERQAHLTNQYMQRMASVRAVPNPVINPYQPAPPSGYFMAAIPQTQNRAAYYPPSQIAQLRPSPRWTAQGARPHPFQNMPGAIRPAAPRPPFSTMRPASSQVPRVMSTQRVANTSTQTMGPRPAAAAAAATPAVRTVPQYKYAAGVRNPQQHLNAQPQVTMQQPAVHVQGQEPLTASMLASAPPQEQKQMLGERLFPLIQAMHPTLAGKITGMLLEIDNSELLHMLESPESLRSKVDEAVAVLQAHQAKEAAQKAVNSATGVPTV
UUG fidelity = modulators of start codon recognition fidelity in yeast | S. cerevisiae UUG-firefly luciferase reporter, luminescence/redox ratio | activity score, % at 18.7 µM | 350,000 compounds, 0.13% hits;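 active means replicate mean at a twofold rise or more, about +100% in these data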;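 further: firefly luciferase made from a UUG start codon reports start codon fidelity; reporter light over untreated wells divided by growth signal over untreated wells; some hits fall short of that in this replicate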
CSC inhib = cancer stem cell inhibition; cancer stem cell-like cells viability, luminescence; inhibition, % at 7.5 µM; 300,000 compounds, 1.1% hits;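 active means mean at 75% or more and at least half the replicates too; inconclusive means mean and replicates disagree; tested in HMLE shEcad cells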;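 further: 0% = median of negative and 100% = median of positive control wells; the first replicate is given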
MT1-MMP act inh = inhibitors of human MT1-MMP activation. P50281. HT1080 RFP-PRO-GFP cells, GFP/RFP ratio fluorescence, overnight; percent of plate control window, DMSO zero. GFP/RFP ratio change, % at 20 µM. 360,000 compounds, 0.061% hits;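 active means GFP/RFP ratio change of at least 30% with cell ATP level not reduced by more than half and red fluorescence within 50% of control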; further: strong numbers were not always called active
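Read-out: GFP/RFP fluorescence ratio; Test system: RFP-PRO-GFP reporter HT1080 cells; Compound dosing: single-point 20 µM compound, 1% DMSO; Times: overnight compound exposure at 37 °C.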
HIV Env fusion = blocks HIV Env-driven cell-cell fusion. HeLa-JRFL Env/CEM21 cell fusion, luciferase. inhibition, % at 12.3 µM. 360,000 compounds, 1.1% hits;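 active means mean replicate inhibition score of at least 50 and every replicate individually at or above 50; inconclusive means only one of the two criteria met; inactive means mean below 50 and not all replicates reaching 50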;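 further: 0% = plate neutral controls and 100% = maraviroc near 300 nM; one replicate is shown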
eIF4H FP inh retest = further read-out of eIF4H FP inh, marked with its call; inhibition, %; compound at 20 µM; confirmation average;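 mean of two retest wells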
PABP polyA inh retest = recorded beside PABP polyA inh, whose call it bears; inhibition, %; compound at 20 µM; confirmation repeats;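 mean of two retest wells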
MT1-MMP act inh RFP = second read-out of MT1-MMP act inh, no call of its own (marks repeat the call); RFP signal change, %; measured here: RFP expression control read;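 0 = vehicle wells; hits needed this value within 50% of zero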
Active calls of the source: *; i = inactive; ? = inconclusive; . = not tested or not shown.

SMILES	eIF4H FP inh	Rce1 inh	PABP polyA inh	UUG fidelity	CSC inhib	MT1-MMP act inh	MT1-MMP act inh RFP	HIV Env fusion	others
COc1cc(/C=N\NC(=O)c2ccc(-c3ccccc3)cc2)cc(OC)c1OC(C)=O	3	i	3	-10	-9	9	4	-23
O=C(NCCOc1ccccc1)C1=CC=CN2CCS(=O)(=O)N=C12	.	.	.	-13	-10	-2	0	-5
c1ccc(CNc2ncnc3sc4c(c23)CCC4)nc1	-6	i	-5	.	-9	-2	-5	.
CN(CCc1ccccc1)C(=O)c1ccc(NC(=O)Cc2ccc([N+](=O)[O-])cc2)cc1	.	.	.	-19	-14	9	-14	27
CCOc1ccc(OCC)c(NC(=O)CSc2nnc(C3CC3)n2CC)c1	-5	i	0	-13	-13	-3	-3	10
O=C(CN1C(=O)c2ccccc2C1=O)NCc1ccc(N2CCOCC2)cc1	-1	i	-2	-8	4	.	.	-2
CCC1(C)COC(c2ccc3c(c2)OCO3)OC1 (stereo unspecified)	.	.	.	-4	.	6	0	16
COCCn1nnnc1C(c1cc2ccc(C)cc2[nH]c1=O)N(Cc1ccco1)Cc1cccs1 (stereo unspecified)	-6	i	4	-2	-8	3	0	.
CC1CCCCC12NC(=O)N(CC(=O)Nc1sc3c(c1C(N)=O)CCC3)C2=O (stereo unspecified)	78*	i	74*	-10	0	-6	-4	.
CCN(C(=O)COC(=O)CCOc1cccc(C)c1)c1c(N)n(Cc2ccccc2)c(=O)[nH]c1=O	.	.	.	-8	.	0	-1	-30
O=C(N[C@H]1C/C=C\C[C@H](CC(=O)N(CCO)Cc2ccccc2)C(=O)N[C@H](Cc2c[nH]c3ccccc23)COC1=O)OCC1c2ccccc2-c2ccccc21	.	.	.	-1	.	4	1	-85
Cc1cccc(-n2nc3c(c2NC(=O)C(C)C)CS(=O)(=O)C3)c1C	-12	i	-1	12	-9	-3	1	5
C=CCNC(=O)CSc1nc2scc(-c3ccco3)c2c(=O)n1CC=C	50	i	15	-3	-14	1	6	2
O=C(O)Cc1sc(-c2ccc(Cl)cc2)nc1-c1ccccc1	-2	i	-10	-9	-2	-2	-1	-46
O=C(NCCc1c[nH]c2ccccc12)C(=O)NCC1OCCN1S(=O)(=O)c1cc(F)ccc1F (stereo unspecified)	-14	i	-15	12	13	-3	-7	15
O=C(CSc1nc2ccccc2s1)c1ccc(O)cc1O	0	i	24	-13	18	-4	-5	-1
CCCCCCC(=O)N(O)C1CC(=O)N(c2ccc(F)cc2)C1=O (stereo unspecified)	-11	i	3	-27	35	17	12	14
CCCCN(C(=O)C1=COCCO1)c1c(N)n(Cc2ccccc2)c(=O)[nH]c1=O	.	.	.	-9	-1	2	3	3
CN(Cc1ccccc1)C(=O)C1CCN(S(=O)(=O)c2ccc3nc4c(c(C(=O)O)c3c2)CCCC4)CC1	66*	i	35	-20	4	-4	2	6	eIF4H FP inh retest=51*;PABP polyA inh retest=30
Cn1c(=O)c2c(nc(CN3CCN(C(=O)c4ccco4)CC3)n2Cc2ccccc2)n(C)c1=O	3	i	-1	4	-8	0	1	.
C/C(=N\Nc1ccc([N+](=O)[O-])cc1)c1cc2ccccc2o1	57*	i	11	.	30	-128	5	-22	eIF4H FP inh retest=89*;PABP polyA inh retest=35
O=C1c2ccccc2C(O)(c2ncc[nH]2)N1C1CCCCC1 (stereo unspecified)	-4	i	-6	-13	-13	2	6	.
Nc1nc2c(ncn2-c2ccccc2)c(=O)[nH]1	.	.	.	-7	.	3	4	4
c1ccc2c(c1)nnn2CNc1nccs1	-9	i	0	.	-18	2	-2	-7
CCc1n[nH]c(=S)n1/N=C/c1ccccn1	-2	i	-11	-26	-11	3	4	-23
COc1ccc(NC(=O)C2CCCN(C(=O)Nc3cccc(OC)c3)C2)cc1 (stereo unspecified)	1	i	-8	-7	-13	-11	-5	-1
O=C1c2ccccc2C(=O)N1CCC(=O)N1CCc2ccccc21	.	.	.	-15	.	1	0	-33
Cc1ccc(O)c(NC(=O)Cc2ccc3ccccc3c2)c1	-7	i	5	4	1	0	-6	-1
CC(C)N=C1CC(C)(C)CC(=O)/C1=C(/O)CCCN1C(=O)c2ccccc2C1=O	-1	i	-8	-1	16	2	3	16
Cc1c(Cl)cccc1NC(=O)CSC(N)=O	24	i	4	-14	6	-4	1	-11
O=C(Nc1ccc2c(c1)OCCO2)c1ccc(Br)c(S(=O)(=O)N2CCOCC2)c1	-8	.	8	-23	.	.	.	.
Cc1cc(C)cc(N(C(=O)c2csnn2)C(C(=O)NC(C)(C)C)c2ccccn2)c1 (stereo unspecified)	-5	i	13	.	-6	-1	-1	23
O=C(Nc1cccc(Br)c1)C1CC(=O)N(C2CCCC2)C1 (stereo unspecified)	.	.	.	-5	.	-2	2	-5
O=C(COc1ccc2c(-c3ccccc3)cc(=O)oc2c1)NC1CCS(=O)(=O)C1 (stereo unspecified)	.	.	.	-9	-5	4	-5	.
Cc1ccc(NC(=O)c2ccncc2)cc1S(=O)(=O)N(C)C	-25	i	-16	-16	11	3	4	.
CCCCCCN=C(C)C1=C(O)C(C(=O)OC)C(C)(C)CC1=O (stereo unspecified)	2	i	2	-9	-15	4	4	.
O=C(CSc1ccccc1)Nc1ccc(C(=O)Nc2cccc(O)c2)cc1	5	i	-1	.	6	3	1	-21
CCN(CC)C(=O)C(=O)N/N=C/c1ccc(Cl)cc1Cl	11	i	8	.	18	-1	-1	0
Cc1cc(Nc2nnnn2-c2ccccc2)n(-c2ccccc2)n1	1	i	9	-8	5	-11	-5	-58
CC(C)(C)NS(=O)(=O)c1ccc(CCC(=O)NCc2ccco2)cc1	-9	i	-4	4	-9	-8	-8	-48
COc1cc(=O)[nH]c(=O)n1C(=O)Cc1ccccc1	1	i	-16	-16	5	-4	3	-33
Cc1ccnc(NC(=O)Nc2cccc(F)c2)n1	-7	i	-5	.	-2	0	1	-52
Cc1nc2ccc(F)cc2cc1C(=O)NCC1CCCO1 (stereo unspecified)	32	i	10	-5	.	-8	0	.
COc1ccc(/C=C2\SC(=O)NC2=S)cc1OC	?	i	6	-17	5	-134	-5	3
CNC(=S)N1CCN(c2ccc([N+](=O)[O-])cc2)CC1	-8	i	-9	-12	28	4	-3	-75
O=C(Cn1nnc(-c2ccccc2)n1)NCC(=O)Nc1ccc(F)c(F)c1F	.	.	.	0	4	3	2	.
CCC(=O)N(CC)C1=C(O)c2ccccc2C(=O)C1=O	-18	i	-9	.	-7	-17	4	.
O=C(NCCc1ccccc1)c1ccccc1[N+](=O)[O-]	-9	i	-3	-1	-3	2	-1	0
COC(=O)Nc1ccc2c(c1)N(C(=O)CCN(C)C)c1ccccc1CC2	-6	i	-14	-10	-3	-3	0	1
COC(=O)c1ccc(CNC(=O)COC(=O)Cc2ccsc2)cc1	-8	i	-13	.	-2	3	9	3
CCC(CC)N1CCN(Cc2nc3ccc([N+](=O)[O-])cc3c(=O)n2-c2ccccc2F)CC1	-5	i	-6	.	-8	0	0	11
O=C(Nc1cccnc1)C1CCN(S(=O)(=O)c2cccc3nonc23)CC1	-1	i	-6	-9	.	-1	2	.
N#C/C(=C(/O)COC(=O)CSc1ccc2ccccc2c1)c1nc2ccccc2[nH]1	32	i	-1	-21	-1	-2	3	-21
Cc1ccc(CSCC(=O)Nc2c(C)n(C)n(-c3ccccc3)c2=O)cc1	-3	i	-3	.	-16	0	4	.
COc1ccc(OC)c(-c2nnc(SCC(=O)N3CCCC3)o2)c1	4	i	8	-2	-17	6	0	-5
CCOC(=O)N1CCC(NC(=O)c2cc3c(-c4cccc(OC)c4)nn(C)c3s2)CC1	0	i	1	-9	10	3	0	.
c1cncc(CNc2ncnc3sc4c(c23)CCC4)c1	-6	i	-2	.	-14	-6	-9	36
COc1cc(N(Cc2ccccc2)Cc2ccccc2)c2ncn(C(C)C)c2c1	.	.	.	-21	31	-4	-4	17
Cc1ccc(NC(=O)COC(=O)CCC(=O)c2cccs2)c(C)c1	12	i	0	-12	-15	-1	0	9
COc1ccc(/C=C/C(=O)NC(=S)N2CCSCC2)cc1	-9	i	-4	.	-1	1	1	-2

At a glance, some entries already given.
SMILES	eIF4H FP inh	Rce1 inh	PABP polyA inh	UUG fidelity	CSC inhib	MT1-MMP act inh	MT1-MMP act inh RFP	HIV Env fusion	others
COc1ccc(/C=C2\SC(=O)NC2=S)cc1OC	?	i	6	-17	5	-134	-5	3
CNC(=S)N1CCN(c2ccc([N+](=O)[O-])cc2)CC1	-8	i	-9	-12	28	4	-3	-75
O=C(Cn1nnc(-c2ccccc2)n1)NCC(=O)Nc1ccc(F)c(F)c1F	.	.	.	0	4	3	2	.
CCC(=O)N(CC)C1=C(O)c2ccccc2C(=O)C1=O	-18	i	-9	.	-7	-17	4	.

Following part.
SMILES	eIF4H FP inh	Rce1 inh	PABP polyA inh	UUG fidelity	CSC inhib	MT1-MMP act inh	MT1-MMP act inh RFP	HIV Env fusion	others
O=C(CCC(=O)c1ccc(F)cc1)Nc1cc(Cl)cc(Cl)c1	-3	i	6	-15	7	3	0	.
O=C(c1ccc(S(=O)(=O)N2CCCC2)cc1)N1CCCCCC1	4	i	-2	-24	.	3	-1	3
COc1ccc(OC)c(NC(=O)Nc2ccc3c(c2)CCC3)c1	-6	i	-1	-13	1	1	-4	-29
Cc1ccccc1OCC(=O)OCC(=O)Nc1cc(C(F)(F)F)ccc1N1CCOCC1	-6	.	-2	.	-15	-4	0	5
O=C(CN1C(=O)C2C3C=CC(C3)C2C1=O)OCC(=O)c1ccccc1 (stereo unspecified)	-6	i	-3	-5	2	4	5	-17
NC(=O)c1c(NC(=O)CN2C(=O)NC(Cc3ccccc3)C2=O)sc2c1CCC2 (stereo unspecified)	23	i	19	-17	-5	1	5	4
Nc1ncc(CN2CCCC(C(=O)Nc3ccc(-c4ccco4)cc3)C2)cn1 (stereo unspecified)	-17	i	-12	-9	-5	-3	0	-3
COc1ccccc1NC(=O)c1sc2ncn(Cc3ccc(C)cc3)c(=O)c2c1C	4	i	-6	-27	-8	-6	-1	.
C=C1CCN([C@@H](CC(C)C)C(=O)N2CCOCC2)S(=O)(=O)c2ccccc21	.	i	.	-13	-4	-2	3	29
N#C/C(=C(/O)c1ccc(C(=O)c2ccccc2)cc1)c1nc2ccccc2[nH]1	-20	i	-26	-19	14	-3	-7	6
Cc1cc(=O)oc(C)c1C(=O)NCc1ccccc1	-2	i	9	10	-5	-7	-2	-5
O=C(Nc1ccc2c(c1)OC1(CCCC1)O2)C1CC1	-8	i	4	-12	.	9	1	.
O=C(NC1CCCC1)c1cc(-c2ccccc2)nc2ccccc12	-8	i	-13	6	-8	0	2	-20
CSc1ccccc1NC(=O)c1cc(C2CC2)on1	-9	i	-4	-6	-19	1	3	5
Cc1ccc(NC(=O)CSc2ccc(C(N)=O)cc2[N+](=O)[O-])cc1	0	i	-1	-15	-4	-1	1	17
Cc1ccc2c(c1)sc(C)[n+]2CCCS(=O)(=O)[O-]	1	i	32	-9	14	1	4	11
CCCn1c(SCC(=O)N2c3ccc(F)cc3CCC2C)nnc1-c1ccccn1 (stereo unspecified)	0	i	-5	.	5	0	-1	0
CCC1=Nc2ccccc2-c2nnc(SC)nc2O1	-1	i	7	-9	2	0	5	.
Cc1ccc(NC(=O)C(C)Sc2nnc(-c3cccnc3)n2-c2ccccc2)cc1 (stereo unspecified)	-11	i	1	-12	-11	-2	0	19
Nc1c(C(=O)NCCc2ccccc2)nnn1Cc1ccccc1	3	i	4	.	-4	0	-4	-84

Compound activity: PubChem BioAssay, several laboratories
